GALR2 ag – agonists of human galanin receptor 2 (GALR2). GALR2-expressing cells, agonist activation read-out. O43603. 140,000 tested, 0.48% active. activation, %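 (tested at 5 µM)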. AID 803;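 active means above mean plus 3 SD of all compounds, about 5% in these data, not always enough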;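 further: 0% = vehicle buffer wells and 100% = reference agonist at full effect; tested in CHO reporter cells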
Target sequence (O43603 whole entry, looked up): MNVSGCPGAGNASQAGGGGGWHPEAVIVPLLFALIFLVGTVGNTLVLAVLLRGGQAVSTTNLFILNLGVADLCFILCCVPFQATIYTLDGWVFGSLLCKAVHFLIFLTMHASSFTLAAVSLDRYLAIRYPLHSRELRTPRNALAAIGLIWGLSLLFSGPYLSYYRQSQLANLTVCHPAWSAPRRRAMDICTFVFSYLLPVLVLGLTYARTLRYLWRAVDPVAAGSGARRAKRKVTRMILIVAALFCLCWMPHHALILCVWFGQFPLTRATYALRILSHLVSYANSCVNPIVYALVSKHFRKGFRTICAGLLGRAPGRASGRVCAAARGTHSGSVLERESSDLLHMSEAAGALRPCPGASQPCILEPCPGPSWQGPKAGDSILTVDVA
RGS16-Gao – regulators of human RGS16-Galphao interaction | 220,000 tested, 0.38% active | binding response (% of control), % at 10 µM | bead-based flow cytometry RGS16-Galphao binding, fluorescence; actives lie on both sides;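 active means below 25% or above 175%, edge rows of some plates excepted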;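 further: Galphao activated by GDP with aluminum fluoride before binding; 100% = wells without compound and 0% = beads without RGS; some results beyond the cut were filed as inactive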
Target sequence (O15492 whole entry, looked up): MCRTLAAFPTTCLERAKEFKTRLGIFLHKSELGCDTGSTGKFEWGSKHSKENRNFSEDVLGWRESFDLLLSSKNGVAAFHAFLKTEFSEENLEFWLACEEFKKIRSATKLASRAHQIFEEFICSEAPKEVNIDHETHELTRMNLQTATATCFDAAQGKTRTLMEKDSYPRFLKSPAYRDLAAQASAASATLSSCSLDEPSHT
Target sequence (P09471 whole entry, looked up): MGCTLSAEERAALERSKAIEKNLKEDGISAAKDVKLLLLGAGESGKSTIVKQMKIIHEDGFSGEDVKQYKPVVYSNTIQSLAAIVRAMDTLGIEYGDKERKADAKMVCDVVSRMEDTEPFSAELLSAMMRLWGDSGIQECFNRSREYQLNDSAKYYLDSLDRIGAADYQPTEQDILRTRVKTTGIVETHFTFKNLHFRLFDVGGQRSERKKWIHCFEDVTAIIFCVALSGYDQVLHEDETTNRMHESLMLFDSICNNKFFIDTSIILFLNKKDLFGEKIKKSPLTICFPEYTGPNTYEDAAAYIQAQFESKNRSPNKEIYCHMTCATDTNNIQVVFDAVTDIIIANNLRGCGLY
Insulin prom inh – TRM-6 insulin promoter activity inhibition; TRM-6 cells (human fetal islet line), insulin promoter-eGFP reporter, imaging; reporter expression induced with tamoxifen; inhibition, % at 2 µM; 130,000 tested, 0.9% active; AID 1273;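 active means inhibition above the mean plus 3 SD, with well images judged a real hit on visual review, cut at about 60% in these data, passing the limit was not always enough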
HSV augment – increases HSV replication in cells; HSV replication augmentation in cells, fold increase; maximum fold increase; 220,000 tested, 0.005% active; AID 1956;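 active means peak rise of 1.5-fold or more in the series; tested in PC3 cells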;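 further: first round at 10 µM; read as green reporter fluorescence; hits show the peak of a series up to 25 µM; 1 = signal of infected wells without compound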
PKD1 inh – blocks activity of human protein kinase D1; Q15139; PKD1 kinase fluorescence polarization assay; inhibition, %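 (about 10 µM by stock and volumes)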; 200,000 tested, 0.056% active; AID 797;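 active means inhibition of 50% or more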;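 further: controls were vehicle for no effect and a reference inhibitor for full effect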
Insulin prom inh cell count – recorded beside Insulin prom inh, whose call it bears; normalized cell count, %; measured here: cell count, toxicity; reference of the scale not given here;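 cells exposed to compound for 48 h; stained nuclei by imaging scaled within each plate; lower means fewer cells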
HSV augment primary fold – recorded beside HSV augment, whose call it bears; fold increase; compound at 10 µM; measured here: primary screen fold increase 10 uM; tested in PC3 cells;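 GFP signal in the first replicate; 1 = infected wells without compound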
Numbers without * were called inactive; i = inactive; . = not tested or not shown.

SMILES	GALR2 ag	RGS16-Gao	Insulin prom inh	Insulin prom inh cell count	HSV augment	HSV augment primary fold	PKD1 inh
CCOC(=O)/C(C#N)=C/C1=C(N2CCCC2)CC(C)(CC)OC1 (centres undefined)	0.0	102	-45	252	i	1.1	2
O=c1c(=O)n(O)c2ccccc2n1O	-2.2	100	40	61	i	1.1	2
O=C(COC(=O)c1ccc(Cl)nc1)NCc1ccco1	.	98	62	99	i	0.78	-4
CCCCn1c(N)c(N(CC(C)C)C(=O)CN(C)Cc2cccc(OC)c2)c(=O)[nH]c1=O	-0.8	104	-7	129	i	1.1	-7
O=C(O)c1ccc(NC(=O)c2cn(-c3ccccc3)nc2-c2ccc(Br)cc2)cc1	.	105	.	.	i	0.91	6
O=C1CCc2cc(S(=O)(=O)NCCCC(=O)N3CCN(Cc4ccc5c(c4)OCO5)CC3)ccc2N1	.	98	.	.	i	0.95	5
CCc1ccc(-n2c(=O)c3ccccc3n(CC(=O)C(C)(C)C)c2=O)cc1	.	105	-26	78	i	1.2	-1
CN(C)c1cc(NC(=O)CN2CCCC2)c2ccccc2n1	.	104	.	.	i	0.91	.
CC(C)C(=O)N=C1NC(=O)CS1	-1.3	109	29	104	i	0.98	-9
CCC(=O)NC(=S)Nc1ccc(-c2nc3ccccc3s2)cc1	-2.2	103	0	120	i	1	-6
COCCCNC(=O)Cn1nc(-c2ccccc2OC)ccc1=O	-0.1	102	33	191	.	.	-2
COc1ccc(C(c2nnnn2CCc2ccccc2)N2CCN(C)CC2)cc1OC (centres undefined)	-0.6	110	.	.	i	1	-2
COC(=O)c1ccc(OC)c(CSc2nnc(COc3ccc(Cl)cc3)o2)c1	-1.7	113	-31	97	i	1.1	1
CN=c1c([N+](=O)[O-])nn(-c2ccc3c(c2)OCCO3)n1O	.	99	-17	65	i	0.97	-7
CN1CCN(C2CCCCCC2)CC1	-2.1	104	29	89	i	0.94	-7
Cn1cccc1/C=C1\SC(=Nc2cccc(O)c2)NC1=O	.	104	.	.	i	0.77	.
O=C(/C=C/NCc1ccc(F)cc1)c1ccccc1	-2.3	109	13	88	i	1.1	-7
COc1ccc(/C=C/C(=O)OCC(=O)Nc2ccc(Cl)c(S(=O)(=O)N(C)C)c2)cc1OC	-1.5	100	-15	114	i	0.84	-6
COc1ccc(CC2SC(=Nc3ccc(F)cc3)NC2=O)cc1 (centres undefined)	.	101	.	.	i	0.84	2
O=c1[nH]nc(Cc2ccccn2)c2ccccc12	-1.9	103	.	.	i	0.86	-12
COc1cc(CNC2CCCCC2OC)cc(OC)c1 (centres undefined)	.	93	.	.	i	0.94	5
O=C(O)COc1ccccc1/C=N/NC(=O)CSc1nc2ccccc2n1Cc1ccccc1	.	101	.	.	i	1	.
Cc1ccccc1OCC(=O)N/N=C/c1ccc(N(C)C)cc1	.	99	.	.	i	0.94	-5
COC(=O)c1ccc(/C=N/Nc2nc(C)c(C)s2)cc1	.	102	.	.	i	0.9	.
Cc1ccc(CSC2=Nc3ccccc3C3=NC(CCC(=O)NCc4ccco4)C(=O)N23)cc1 (centres undefined)	-0.1	97	-33	61	i	0.89	-2
COc1ccc(-c2nc(SCC(=O)NCc3ccco3)c(-c3ccccc3)[nH]2)cc1OC	-0.3	96	72*	87*	i	1	2
CN(C)S(=O)(=O)c1ccc(C(=O)NC2CCCc3ccccc32)cc1 (centres undefined)	.	103	26	72	i	1.1	-9
COc1ccccc1-n1cnnc1SCc1csc(-c2ccccc2)n1	-4.0	97	31	102	i	0.92	-3
CCCCCCC(=O)N(O)C1CC(=O)N(Cc2ccccc2)C1=O (centres undefined)	-0.9	105	.	.	i	0.88	5
Cc1cc(C)c2nc(-c3ccccn3)cc(C(=O)NCCc3ccc(S(N)(=O)=O)cc3)c2c1	.	99	.	.	i	1	-6

Entries of single compounds from above. Order of values: GALR2 ag	RGS16-Gao	Insulin prom inh	Insulin prom inh cell count	HSV augment	HSV augment primary fold	PKD1 inh
Record of O=c1[nH]nc(Cc2ccccn2)c2ccccc12 : -1.9	103	.	.	i	0.86	-12
Record of Cc1cc(C)c2nc(-c3ccccn3)cc(C(=O)NCCc3ccc(S(N)(=O)=O)cc3)c2c1 : .	99	.	.	i	1	-6
Record of Cn1cccc1/C=C1\SC(=Nc2cccc(O)c2)NC1=O : .	104	.	.	i	0.77	.

Further compounds:
SMILES	GALR2 ag	RGS16-Gao	Insulin prom inh	Insulin prom inh cell count	HSV augment	HSV augment primary fold	PKD1 inh
CC(C)(C)[C@H]1C=C(C(=O)N2CCN(Cc3ccc4c(c3)OCO4)CC2)O[C@@H](OCCCCO)C1	.	101	.	.	i	0.88	-8
CCc1nc(SCC(=O)NCCc2ccc(OC)c(OC)c2)c2c(=O)n(C)c(=O)n(C)c2n1	.	100	.	.	i	0.98	-9
COCCCNC(=O)COc1ccc(S(=O)(=O)NCc2ccccc2)cc1Cl	-0.9	i	-54	91	i	0.93	2
O=C(O)C1C2C=CC(C2)C1C(=O)N1CCN(C/C=C/c2ccccc2)CC1 (centres undefined)	-2.3	150	10	82	.	.	2
OCCNc1nc2nonc2nc1NCCO	.	99	.	.	i	1.1	-1
CCN(CC(=O)Nc1ccc(NC(C)=O)cc1)CC(=O)Nc1ccccc1C(=O)c1ccccc1	.	100	.	.	i	0.99	2
O=c1c2cc(-c3ccccc3)sc2nc2n1N=C(c1ccccc1)CS2	.	100	.	.	i	1	.
O=S(=O)(c1cccc2nonc12)N1CCCCCC1	.	109	.	.	i	0.95	3
COc1ccc(NC(=S)NCCCN2CCOCC2)cc1	.	98	.	.	i	0.96	.
COc1ccc(OC)c(NC(=O)C2=C(C)NC(=O)NC2c2cccs2)c1 (centres undefined)	.	111	57	78	i	0.97	1
CCOC(=O)CSc1nc(N)nc(C)c1Br	-0.8	80	-16	74	i	0.98	-5
COc1cc(C2Nc3ccccc3C(=O)N2c2ccccc2)ccc1O (centres undefined)	-1.0	113	20	99	i	0.95	-7
Cn1cnnc1SC1CCCCC1NS(=O)(=O)c1ccc(Cl)cc1 (centres undefined)	-2.5	106	-112	101	i	1.2	0
COc1ccc2c(c1)[nH]c1c(N3CCN(Cc4ccc5c(c4)OCO5)CC3)ncnc12	-0.1	160	-67	74	i	0.69	-53
O=C(NCc1ccco1)c1nnc(Cc2ccc(F)cc2)o1	-1.1	124	.	.	i	0.96	4

Some of the entries above, set out differently.
Structure | GALR2 ag | RGS16-Gao | Insulin prom inh | Insulin prom inh cell count | HSV augment | HSV augment primary fold | PKD1 inh
CC(C)(C)[C@H]1C=C(C(=O)N2CCN(Cc3ccc4c(c3)OCO4)CC2)O[C@@H](OCCCCO)C1 | . | 101 | . | . | i | 0.88 | -8
CCc1nc(SCC(=O)NCCc2ccc(OC)c(OC)c2)c2c(=O)n(C)c(=O)n(C)c2n1 | . | 100 | . | . | i | 0.98 | -9
COCCCNC(=O)COc1ccc(S(=O)(=O)NCc2ccccc2)cc1Cl | -0.9 | i | -54 | 91 | i | 0.93 | 2
O=C(O)C1C2C=CC(C2)C1C(=O)N1CCN(C/C=C/c2ccccc2)CC1 (centres undefined) | -2.3 | 150 | 10 | 82 | . | . | 2

More compounds
SMILES	GALR2 ag	RGS16-Gao	Insulin prom inh	Insulin prom inh cell count	HSV augment	HSV augment primary fold	PKD1 inh
c1ccc(C(c2ccccc2)N2CCN(Cc3nnnn3C3CCCC3)CC2)cc1	-0.8	104	-21	112	i	0.99	7
COC(=O)c1nnn(-c2nonc2N)c1CSc1ccc(Cl)cc1	-1.4	83	.	.	i	0.95	2
CCCNC(=O)OCC12CC3CC(CC(C3)C1)C2	0.3	102	.	.	i	1.1	-4
CCc1cc2cc3c(cc2nc1SCC(=O)N1CCN(C(=O)c2ccco2)CC1)OCO3	2.9	100	.	.	i	0.94	-7
c1csc(-c2nn[nH]n2)c1	-1.6	88	.	.	i	0.92	-1
CCN(C(=O)COC(=O)c1cccc(NS(=O)(=O)c2ccc(F)c(F)c2)c1)C1CCS(=O)(=O)C1 (centres undefined)	.	101	22	159	i	1	-2
CCc1nnc(NS(=O)(=O)c2ccc(N/C=C/C(=O)c3ccc(C)cc3)cc2)s1	1.2	107	36	63	i	1	-5
Cn1nc(C(=O)Nc2nc3ccccc3[nH]2)c2ccccc2c1=O	-1.0	46	.	.	i	1	-9
COCCN1Cc2cccc(C(=O)Nc3ccccc3OC)c2C1=O	-1.2	101	23	100	i	0.99	4
Cc1n[nH]c(C)c1Sc1ccccc1N=Cc1cc(Cl)cc([N+](=O)[O-])c1O	-2.2	101	17	132	i	0.96	-9
COC(=O)c1ccc(C(=O)OC)c(NC(=O)CSCc2ccccc2Br)c1	-1.7	105	33	118	i	0.88	-8
COc1ccc(NC(=O)CSc2n[nH]c(C(C)C)n2)c([N+](=O)[O-])c1	.	99	.	.	i	0.99	-6
CCC(=O)N(CCc1ccc(OC)c(OC)c1)Cc1cc2ccc(C)cc2n2nnnc12	.	102	.	.	i	0.79	-1
O=C(O)C1C2C=CC(C2)C1C(=O)N1CCOCC1 (centres undefined)	-0.8	105	50	108	i	1.1	-8
O=C(NC1CCCC1)c1ccccc1OCc1ccccc1	.	110	-55	174	i	0.9	-2
O=C(O)CC/C(=N\Nc1ccc(S(=O)(=O)N2CCCC2)cc1[N+](=O)[O-])c1cccs1	-2.7	100	.	.	i	0.95	-5
CCCCOc1ccccc1P(=O)(O)CP(=O)(c1ccccc1)c1ccccc1	-3.5	107	18	67	i	0.99	-3
Cc1nn(C)c(C)c1CN(C)C(=O)c1cnn2c1NC(c1ccccc1)CC2C(F)(F)F (centres undefined)	-0.3	102	-36	146	i	0.96	6
CC1(C)Cc2nc(-c3ccccc3)n3cnnc3c2CO1	-0.7	96	.	.	i	1.1	-5
CN(C)CC(=O)N1c2ccccc2CCc2ccc(NC(=O)c3ccc(N)cc3)cc21	-0.6	96	3	64	i	0.92	-5
CC(CC(=O)Nc1ccc2c(c1)OCCO2)c1ccccc1 (centres undefined)	-0.2	97	32	77	i	1.1	-3
COC(=O)Nc1ccc(NC(C)=O)cc1	-0.2	105	49	72	i	0.79	-6
Cc1noc(C)c1S(=O)(=O)N(C)CC(=O)Nc1ccc(F)cc1	-3.8	104	-46	82	i	0.98	0
COc1ccc(NC(=S)Nc2ncccc2C)c(OC)c1	-2.3	94	.	.	i	0.69	2
CCOC(=O)N1CCN(C(=O)C2CCN(S(=O)(=O)c3cc(Cl)ccc3Cl)CC2)CC1	-3.3	102	22	125	i	0.91	-1
C/C(=N\Nc1nc2ccccc2[nH]1)c1cccs1	-0.8	104	-9	115	i	1	14
Cc1ccc(NC(=O)Cc2nc(CSc3nnc(-c4ccc5c(c4)OCO5)o3)cs2)cc1	-2.4	95	.	.	i	0.9	5
O=C(Nn1c(C2CCC2)nc2ccccc2c1=O)c1cccs1	.	109	0	87	i	1	1
c1ccc(-c2nnc(SCCC3OCCCO3)o2)cc1	-2.2	101	-14	147	.	.	4
CNC(=S)Nc1ccc([N+](=O)[O-])cc1	.	96	-36	63	i	0.97	2
CCCNC(=O)Nc1cc(C)on1	-2.7	103	.	.	i	0.94	-9
CCN(CC)S(=O)(=O)c1ccc(Cl)c(NC(=O)CSc2nnc(-c3cccs3)o2)c1	-1.9	102	0	167	i	0.93	-8
O=C(NCc1ccco1)c1ccc(COCC(F)(F)C(F)F)cc1	-0.8	99	.	.	i	1	-4
On1c(-c2ccco2)nc2c1CCc1nonc1-2	-2.7	103	15	110	i	0.81	11
COc1ccc(-n2nc(C(=O)Nc3ccc4c(c3)OCO4)c3ccccc3c2=O)cc1	-0.3	102	.	.	.	.	-7
O=c1cc(-c2ccc(O)cc2)oc2cc(O)c(C3OC(CO)C(O)C(O)C3O)c(O)c12 (centres undefined)	.	103	.	.	i	0.7	4
COc1ccc(CC(=O)Nc2ccc(OC)nc2)cc1	.	99	.	.	i	1	2
Cc1ccccc1OCc1nc(C#N)c(N2CCCC2)o1	.	85	.	.	i	1.1	1
COC(=O)c1ccc(N2CCOCC2)c(F)c1	-2.4	102	16	100	.	.	-9
CCN(CC)C(c1ccc(F)cc1)c1nnnn1CC1CCCO1 (centres undefined)	-2.8	102	93*	97*	i	0.88	-4
CCCCCCNC(=O)c1c(N)n(/N=C/c2ccco2)c2nc3ccccc3nc12	2.6	.	-3	81	.	.	-2
CC1=CC(C)(C)N(S(=O)(=O)c2ccc(F)cc2)c2ccccc21	-0.4	112	6	62	i	0.72	2
CCc1nnc(NC(=O)CSc2ccc(-c3ccccc3OC)nn2)s1	.	112	9	136	i	0.96	-1
O=C(Oc1cccc2cccnc12)c1ccc(N2C(=O)C3C4CCC(C4)C3C2=O)cc1 (centres undefined)	-1.0	113	7	75	i	0.61	-7
COc1cccc(OC)c1C(=O)Nc1ccc(N2CCN(S(C)(=O)=O)CC2)cc1	0.3	68	45	77	i	0.88	-18
Cc1nnc2sc(-c3ccco3)nn12	-2.0	105	46	93	i	0.98	-6
Cc1cc(-c2ccccc2)nc2cc(C(N)=O)nn12	-1.2	107	-54	111	i	0.94	-19
